# Screening results as filed in PubChem.
# HPGD inh: qHTS Assay for Inhibitors of HPGD (15-Hydroxyprostaglandin Dehydrogenase). 15-hydroxyprostaglandin dehydrogenase [NAD(+)] (Homo sapiens), P15428. purified HPGD, NADH fluorescence kinetic, PGE2 substrate. Potency, µM, without a hit: at the top dose activity change, negative = inhibition, usual class: inhibitors. 150,000 tested, 4.3% active; active = well fitted inhibition curve with a large enough effect (not every such curve was filed as active); inconclusive = small, poorly fitted or top-dose-only effect, or another doubt; inactive = no such curve, though single readings can be large or run the other way;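 further: top concentration of the series not given in the record; plate controls included wells without enzyme; inactives centre near -10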
# Target sequence (P15428 whole entry, looked up): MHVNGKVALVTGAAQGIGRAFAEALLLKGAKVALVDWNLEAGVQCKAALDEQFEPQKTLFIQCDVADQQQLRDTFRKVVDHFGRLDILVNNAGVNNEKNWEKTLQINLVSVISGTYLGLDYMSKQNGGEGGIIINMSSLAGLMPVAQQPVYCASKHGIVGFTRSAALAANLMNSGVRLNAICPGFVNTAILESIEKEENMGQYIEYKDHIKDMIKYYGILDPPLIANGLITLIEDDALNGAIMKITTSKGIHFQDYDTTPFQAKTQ
#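 NADH formation kinetics: reaction with 30 uM PGE2 and 1 mM NAD+ (final), 20 nM enzyme, Tris-HCl pH 8 with Tween 20, after 15 min compound preincubation at room temperature. Fluorescence change, last versus first of five reads.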
# * hit, by the source's call; u = inconclusive; & = joins results of further samples. On the % scale 0 is the no-effect control and ±100 the full control effect; potency means the concentration at half of the fitted maximal effect. An excerpt; rates above refer to the full screens.
HPGD inh	mol
-10%	O=S(=O)(NCCCc1ccccc1)c1ccc(Cl)cc1
-11%	CN(C(=O)c1ccno1)c1nnc(-c2cccnc2)s1
-2%	Cc1nc2sc(C(c3ccco3)N3CCN(c4ccccc4F)CC3)c(O)n2n1 (stereo unspecified)
-10%	O=C(NNC(=O)c1sccc1-n1cccc1)c1ccccc1
-21%	CC(C)(C)C1C=C(Sc2ccccc2)C(=O)O1 (stereo unspecified)
-9%	Cn1c(C(F)(F)F)nc2c(=O)oc3ccccc3c21
-5%	CCN1C(=O)c2ccccc2S(=O)c2ccc(C(=O)NCc3ccccn3)cc21 (stereo unspecified)
-14%	C=C(C)Cn1c(C2CC(=O)N(c3ccccc3F)C2)nc2ccccc21 (stereo unspecified)
-7%	CCc1ccc(NC(=O)c2cc(CC(C)C)on2)cc1
16µM*	O=C1c2ccccc2C(O)N1Cc1ccc2c(c1)OCO2 (stereo unspecified)
-10%	COc1cc(NC(=O)C2CCC(CNc3c(N4CCC(C)CC4)c(=O)c3=O)CC2)cc(OC)c1 (stereo unspecified)
-2%	CC(C)NC(=O)c1ccccc1NC(=O)CCc1ccccc1
-6%	COc1ccc(-c2noc(CCC(=O)NCCN3CCN(c4ccccc4F)CC3)n2)cc1
-12%	COC(=O)c1nn(-c2cccc(C)c2)c2nnc(Cc3ccc(C)cc3)c(=O)n12
-9%	CSc1nc(C)cc(C)c1S(=O)(=O)c1ccccc1C
-1%	CC(C)(C)C1CCC2(CC1)NC(CO)(CO)CO2 (stereo unspecified)
-14%	Cn1c(COc2ccc3ccccc3c2)nnc1SCC(=O)OC1CCCCC1
-3%	CCCCOc1ccc(C(=O)C(CN2CCOCC2)c2ccccc2)cc1 (stereo unspecified)
-9%	Cc1ccc(NC(=O)CN(c2ccccc2)S(=O)(=O)N(C)C)cc1C
u	O=C(Nc1nnc(SCC(=O)N2CCCc3ccccc32)s1)c1cccc2ccccc12
-9%	CN1CCN(S(=O)(=O)c2ccc(N3CCN(S(=O)(=O)/C=C/c4ccccc4)CC3)nc2)CC1
-2%	CCc1ccccc1Nc1nc(N)nc(CSCC(=O)c2cc(C)n(C)c2C)n1
-4%	Cc1ccc(S(=O)(=O)N[C@H](CO)C(=O)O)cc1
-13%	c1cnc(NCCNc2ncccn2)nc1
-19%	COc1ccc2c(c1)c(C(O)CN1CCN(Cc3ccc4c(c3)OCO4)CC1)c(C)n2C (stereo unspecified)
-7%	COC(=O)c1cccc(NC(=O)c2cc3sccc3n2C)c1
25µM*	CCc1ccccc1N(CC)C(=O)CCc1nc(-c2ccc(C)cc2)no1
-16%	Cc1noc(C)c1CSc1nc2ccccc2s1
-12%	O=C(NC1CCCCC1)Nn1c(-c2ccccc2)nc2ccccc2c1=O
-11%&-3%	Cc1c(C)c2c(c(C)c1O)CC[C@@](C)(CCC[C@@H](C)CCC[C@@H](C)CCCC(C)C)O2
-22%	CCn1c(SCC(=O)NCCc2ccccc2)nnc1-c1ccco1
-5%	CCOC(=O)c1c(NC(N)=O)sc(C)c1C
-8%	Cc1nnc2ccc(N3CCN(C(=O)c4ccccc4)CC3)nn12
-7%	CC1CCN(S(=O)(=O)c2ccc(NC(=O)CN3CCOCC3)cc2)CC1
-7%	O=C(CN1CCCCCC1)N/N=C/c1cccc(Cl)c1
-14%	CC(=O)Nc1ccc(-n2nnnc2SCC(=O)N2CCN(C(=O)c3ccco3)CC2)cc1
-5%	COC(=O)C1=C(C(=O)OC)[C@@H]2Nc3ccccc3[C@@]23C[C@@H](C(=O)OC)N(C(=O)C2CCC2)C3=N1
6%	CCOC(=O)c1cc2occc2n1CC(=O)NC1CCC(C)CC1 (stereo unspecified)
u	O=C(Oc1oc(-c2ccco2)nc1C=Nc1ccc(Cl)cc1)c1ccco1
-13%	CC(C)(C)C(C(Oc1ccc(Cl)cc1)n1cncn1)n1nnnc1C(c1cccc(Cl)c1)N1CCCCC1 (stereo unspecified)
-9%	CCN(CCO)Cc1cc(=O)oc2c(C)c(C)ccc12
-14%	Cc1cc(NC(=O)c2cccc3ccccc23)cc(C)c1OCC(=O)N1CCOCC1
-7%	COc1cc(S(=O)(=O)N2CCOCC2)ccc1F
-3%	CCOC(=O)C1=C(CN2c3ccccc3CC2C)NC(=O)NC1c1ccccc1 (stereo unspecified)
-19%	CCc1ccc(NC(=O)CC2C(=O)Nc3c2c(=O)n(C)c(=O)n3C)cc1 (stereo unspecified)
-9%	O=C1CSC2=NCN(c3ccc4c(c3)OCO4)CN12
-12%	O=[N+]([O-])c1ccc(-c2nc3ccc([N+](=O)[O-])cc3[nH]2)cc1
-14%	COC(=O)c1ccc(-n2c(C)cc(/C=N/n3cnnc3)c2C)cc1
0%	CC1(C)CC[C@]2(C(=O)O)CC[C@@]3(C)C(=CCC4[C@@]5(C)CCC(O)C(C)(C)C5CC[C@@]43C)C2C1 (stereo partly specified)
-7%	O=C(CNC(=O)c1ccc(N2C(=O)c3ccccc3C2=O)cc1)OCC(=O)c1cccc2ccccc12
u	COc1ccc(OCc2nn3c(-c4cccc(OC)c4)nnc3s2)cc1
-11%	CCCN(CCC)C(=O)CSc1nc2ccccc2c(=O)n1C1CCCC1
-20%	Cc1ccc(N(CC(=O)N/N=C/c2ccc(OC3CSC3)cc2)S(=O)(=O)c2ccccc2)c(C)c1
-18%	Cc1cc(=O)[nH]c2c(C)c(Cl)ccc12
-1%	COc1cc(CN2CCN(CCOCCO)CC2)cc(OC)c1OC
-20%	COCCn1c(=NC(=O)/C=C/c2ccccc2Cl)sc2cc(NC(C)=O)ccc21
1%	Cc1c(C(=O)NC(C)c2ccncc2)oc2ccccc12 (stereo unspecified)
-10%	Cc1cc2oc(C(=O)Nc3ccc(S(=O)(=O)N4CCCC(C)C4)cc3)cc(=O)c2cc1Cl (stereo unspecified)
-12%	COc1ccc(C2C3=C(CC(C)(C)CC3=O)OC(N)=C2[N+](=O)[O-])cc1 (stereo unspecified)
-21%	COc1ccccc1NCC(=O)N/N=C/c1cccnc1

# (cont.)
HPGD inh	mol
u	O=C(Nc1nc(-c2ccc(Oc3ccccc3)cc2)cs1)C1=COCCO1
-10%	Cc1ccc(NC(=O)c2cc(NC(=O)CCCC(=O)O)ccc2Cl)cc1Cl
16µM*	O=C(CCN1C(=O)c2ccccc2C1=O)N1CCCCCC1
-18%	Cc1ccc(N=Nc2[nH]c3ccccc3c2O)cc1
-16%	CCn1nnnc1-c1ccc(OC)c(S(=O)(=O)Nc2ccc(OC)cc2)c1
-14%	CCSCCOC(=O)C1=C(C)NC(=O)NC1c1ccc2c(c1)OCO2 (stereo unspecified)
-17%	CC1=C(C(=O)OCC(C)C)C(c2ccccc2Cl)NC(=O)N1C (stereo unspecified)
-22%	O=c1[nH]c(NCc2ccco2)nnc1Cc1ccccc1Cl
-14%	COc1ccc(C(=O)c2ccc(Br)cc2)cc1
-8%	Nc1c(C(=O)Nc2ccc3c(c2)OCCO3)nnn1CCc1ccccc1
u	COc1ccc(/C=C/C(=O)c2ccc(C)s2)cc1
-8%	O=C(CSc1ccc(-c2ccc(Cl)cc2)nn1)Nc1ccc2c(c1)OCCO2
-23%	Cc1[nH]n(-c2ccccc2)c(=O)c1/C=N/NC(=O)c1ccoc1C
-8%	Cc1ccc(CNC(=O)CCc2nc(-c3cccs3)no2)cc1
-10%	CCOC(=O)c1c(-c2ccccc2)csc1NC(=S)NC
-10%	O=C(CSc1nnc(Cn2c(=O)sc3ccccc32)n1-c1ccccc1)N1CCCC1
-26%	COC(=O)C(C)N1C(=O)S/C(=C\c2cc(C)n(-c3ccccn3)c2C)C1=O (stereo unspecified)
0%	Cc1ccc(C(=O)OCc2nc(N)nc(Nc3ccccc3C)n2)cc1
22µM*	COC(=O)c1ccccc1NC(=O)c1sc(=S)n(C)c1N
18µM*	CN(C(=O)c1cccc(COc2ccc(Cl)cc2Cl)c1)c1ccccc1

# The closing 2 records of the section above open the next one:
HPGD inh	mol
22µM*	COC(=O)c1ccccc1NC(=O)c1sc(=S)n(C)c1N
18µM*	CN(C(=O)c1cccc(COc2ccc(Cl)cc2Cl)c1)c1ccccc1
-10%	Cn1c(=O)c2c(nc(CN3CCN(C(=O)c4ccco4)CC3)n2CCc2ccccc2)n(C)c1=O
-2%	COC(=O)CN(c1nc(C)c(Br)c(OC)n1)S(=O)(=O)c1ccc(C)cc1
2%	COc1ccc(NC(=O)c2cc(S(=O)(=O)N3CCS(=O)(=O)CC3)ccc2Cl)cc1
2%	Cc1cc2ccccn2c1C(=O)c1ccncc1
-6%	O=C1OC(Nc2cc(Br)cc3cccnc23)c2ccccc21 (stereo unspecified)
-10%	COc1ccc(CNS(=O)(=O)c2ccc(S(=O)(=O)N3CCCCC3)cc2)cc1
-9%	COc1ccc(/C=N/NC(=O)Cn2cnc3ccccc3c2=O)cc1
-14%	O=C(NCc1ccccn1)Nc1ccc2c(c1)OCO2
-13%	CC(=O)Nc1ccc2c(c1)c1ccccc1n2C(C)=O
-4%	CCc1cccc(CC)c1NC(=O)COC(=O)c1cccc(S(=O)(=O)N2CCc3ccccc3C2)c1
-29%	CC(NC(=O)Cc1ccccc1)c1ccc(F)cc1 (stereo unspecified)
-4%	Cc1ccc(C(c2sc3nc(C)nn3c2O)N2CCN(c3ccccc3)CC2)cc1 (stereo unspecified)
u	CCc1nnc(SCC(=O)NC2CCCCC2)nc1CC
-8%	O=C(Nc1ccc(Cl)c(Cl)c1)N1CCSCC1
20µM*	O=C(COc1ccccc1Cl)NC(=S)N1CCc2ccccc21
-12%	Cc1ccccc1N1OC2C(=O)N(c3ccc(F)cc3)C(=O)C2C1c1ccccn1 (stereo unspecified)
-11%	O=C(c1ccc(Cl)cc1)[C@@H]1[C@@H]2C(=O)N(c3ccc(Cl)cc3)C(=O)[C@@H]2C2c3ccccc3C=NN21 (stereo partly specified)
-17%	CC1CC2=C(CC1/C=N/NC(N)=S)C(C)(C)CCC2 (stereo unspecified)
-13%	CCN(CC)C1=N/C(=C\c2ccco2)C(=O)N1c1ccccc1
-11%	CCOc1ccc(CCNC(=O)c2nnc(Cc3ccc(F)cc3)o2)cc1OCC
-3%	COc1cc2nc(SCC(=O)c3ccc(Br)cc3)n3nc(C)nc3c2cc1OC
-20%	CCOC(=O)c1[nH]c2ccccc2c1NC(=O)CCN1CCN(C(=O)OCC)CC1
-21%	Cc1c(Cl)c(-c2n[nH]c(=S)n2-c2ccc(F)cc2)nn1C
u	N#Cc1c(-c2ccccc2)cc(C2CC2)nc1SCC(=O)O
-2%	CCOc1cc(C2C(C(=O)OCC(C)C)=C(C)N=C3SCCC(=O)N32)ccc1OC(C)=O (stereo unspecified)
-5%	Cc1ccc(N(CC(=O)NC2CCCC2)C(=O)CCCC(=O)Nc2ccccn2)cc1C
-12%	COC(=O)c1ccc(NC(=O)CSCc2ccccc2)cc1
u	Cc1cc(C)c(C(N)=O)c(NCCc2ccccc2)n1
-15%	CCCCCCn1c(N2CCC(C(N)=O)CC2)nc2c1c(=O)n(C)c(=O)n2C
-4%	CCOC(=O)c1ccccc1Cc1nc2ccccc2c(=O)[nH]1
1%	CCn1c(NC(=O)c2ccc(C)cc2)c2ccccc2nc1=O
-13%	Cc1ccc(C2CC(=O)N(c3ccc(F)cc3)C3=C2C(=O)CCC3)cc1 (stereo unspecified)
-16%	COC(=O)Nc1nnc(CCc2ccccc2)s1
-7%	Cc1ccc(C)c(N2CCN(C(=O)CN(C)S(=O)(=O)c3cnc[nH]3)CC2)c1
-2%	O=C(CSc1nnc(COc2cccc3ccccc23)o1)N1c2ccccc2CCc2ccccc21
u	Cc1ccc(-n2c(SCC(=O)NCc3ccco3)nc3c(sc4ccccc43)c2=O)cc1
-7%	CCn1c(SCc2nc(-c3ccc(Cl)cc3)no2)nnc1-c1ccco1
-3%	COc1ccc(S(=O)(=O)N(CC(=O)N2CCOCC2)Cc2ccccc2)cc1C
-1%	COc1ccc(C2CC(c3cccc(Cl)c3)n3nc(N)nc3N2)cc1 (stereo unspecified)
2%	COc1ccc(-c2oc3cc(OC)c(OC(C)=O)c(OC)c3c(=O)c2OC)cc1OC(C)=O

# Given bar-delimited: entries from further up
mol | HPGD inh
CCOC(=O)c1[nH]c2ccccc2c1NC(=O)CCN1CCN(C(=O)OCC)CC1 | -20%
Cc1c(Cl)c(-c2n[nH]c(=S)n2-c2ccc(F)cc2)nn1C | -21%
N#Cc1c(-c2ccccc2)cc(C2CC2)nc1SCC(=O)O | u
CCOc1cc(C2C(C(=O)OCC(C)C)=C(C)N=C3SCCC(=O)N32)ccc1OC(C)=O (stereo unspecified) | -2%
Cc1ccc(N(CC(=O)NC2CCCC2)C(=O)CCCC(=O)Nc2ccccn2)cc1C | -5%
COC(=O)c1ccc(NC(=O)CSCc2ccccc2)cc1 | -12%
Cc1cc(C)c(C(N)=O)c(NCCc2ccccc2)n1 | u
CCCCCCn1c(N2CCC(C(N)=O)CC2)nc2c1c(=O)n(C)c(=O)n2C | -15%
CCOC(=O)c1ccccc1Cc1nc2ccccc2c(=O)[nH]1 | -4%
CCn1c(NC(=O)c2ccc(C)cc2)c2ccccc2nc1=O | 1%
Cc1ccc(C2CC(=O)N(c3ccc(F)cc3)C3=C2C(=O)CCC3)cc1 (stereo unspecified) | -13%
COC(=O)Nc1nnc(CCc2ccccc2)s1 | -16%
Cc1ccc(C)c(N2CCN(C(=O)CN(C)S(=O)(=O)c3cnc[nH]3)CC2)c1 | -7%
O=C(CSc1nnc(COc2cccc3ccccc23)o1)N1c2ccccc2CCc2ccccc21 | -2%
Cc1ccc(-n2c(SCC(=O)NCc3ccco3)nc3c(sc4ccccc43)c2=O)cc1 | u
CCn1c(SCc2nc(-c3ccc(Cl)cc3)no2)nnc1-c1ccco1 | -7%
COc1ccc(S(=O)(=O)N(CC(=O)N2CCOCC2)Cc2ccccc2)cc1C | -3%
